# Source: PubChem (Center for Chemical Genomics, University of Michigan)
# CDC25B CDK2 inh: human CDC25B-CDK2/CyclinA binding inhibition; P30305+P24941; HTRF CDC25B-CDK2/CyclinA binding, anti-His/anti-Flag; active compounds read high; z-score (no concentration beside the values); actives 0.72% (n = 94,000); AID 1259370;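 further: score is relative to mean and SD of negative controls; strong numbers were not always called active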
# HIV TAR-Tat: HIV-1 TAR-Tat binding disruption | HIV-1 TAR RNA, Tat peptide displacement FRET; active compounds read high | AID 1259389 | actives 0.6% (n = 100,000) | z-score (test concentration not listed);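 further: score is relative to mean and SD of negative controls; some compounds called inactive have numbers as strong as hits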
# The depositor's hits bear a star; / = not tested or not shown.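 How the source made its calls: active means z-score from 3 up in half or more of its runs; inactive means the rest.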 No enrichment for hits. Share with any hit: about 0.9%.
# Fields – HIV TAR-Tat	CDC25B CDK2 inh
> CN(C)S(=O)(=O)N(CC(=O)Nc1ccc(Br)cc1F)c1ccccc1
  -0.95	0.02
> CCc1c(C)nc2ncnn2c1Nc1cccc(Cl)c1
  1.5	/
> CSc1nc(N)nc(N2CCOCC2)n1
  /	-3.4
> CCCc1cc(=O)oc2c(C)c(OC(C)C(=O)OC)ccc12 (configuration not stated)
  /	-0.72
> Cc1ccc(CN2CCCN(Cc3ccc(F)cc3Cl)S2(=O)=O)cc1
  0.44	/
> Cc1ccc(-c2nnc3ccc(SCC(=O)Nc4ccc5c(c4)OCCO5)nn23)cc1
  /	-6.1
> O=C1CC(c2ccccc2C(F)(F)F)c2ccccc2N1 (configuration not stated)
  /	-0.76
> CCC1Cn2c(C(=O)N3CCOCC3)cc3c(Cl)ccc(c32)O1 (configuration not stated)
  0.28	/
> COc1ccc(OC)c(NC(=O)c2noc3c2CSc2ccccc2-3)c1
  1.4	-0.72
> CCOc1cc(C2c3c(oc4ccccc4c3=O)C(=O)N2c2ccccn2)ccc1O (configuration not stated)
  0.1	-0.41
> Cc1nn(C)c(C)c1S(=O)(=O)N(Cc1cc(CN2CCOCC2)cs1)c1cccc(F)c1
  -0.05	/
> Cn1c(Cn2c(=O)sc3ccccc32)nnc1SCc1ccccc1Cl
  /	-1.1
> CC(=O)Nc1cc(C(=O)NCCCN2CCCCC2)ccc1Sc1ccc(F)cc1
  /	0.54
> O=C(CCC(=O)N1CCOc2ccccc21)N1CCCCC1
  -1.1	0.38
> Cc1ccc(S(=O)(=O)N2CCCOC2)cc1
  -0.07	-0.58
> COc1ccc(OC)c(S(=O)(=O)NCCc2cn3ccsc3n2)c1
  -0.51	/
> CCOC(=O)c1ncn(Cc2ccccc2)c1N
  /	-1.4
> COc1ccc(C2=C(C)C(N3CCOCC3)=NS2(=O)=O)cc1
  0.77	-0.72
> CC(=O)/C(N=Nc1ccccc1C)=C(/C)O
  /	-1.3
> O=S(=O)(c1cccc(-c2nnc(-c3ccccc3)o2)c1)N1CCOCC1
  /	-2.8

# The results go on:
# Fields – HIV TAR-Tat	CDC25B CDK2 inh
> CCCOC(=O)Nc1cc(OC)c(Cl)cc1OC
  0.64	-1.9
> Cc1ccc2nc(C(F)(F)F)cc(N3CCN(/C=C(/C#N)S(=O)(=O)c4ccccc4)CC3)c2c1
  /	6.8
> Cc1cccc(-c2noc(CCCn3c(=O)[nH]c4cc5c(cc4c3=O)OCO5)n2)c1
  0.38	/
> O=C(CSc1nccn1C1CCCCC1)Nc1ccc2c(c1)OCO2
  1.6	/
> CC(CCc1ccc(O)cc1)NCCc1ccc(O)c(O)c1 (configuration not stated)
  /	0.13
> Cc1ccc(C(=O)c2cnc3cc4c(cc3c2N2CCN(C)CC2)OCO4)cc1C
  0.36	-0.09
> CCOc1ccccc1OCc1nn2c(Cn3nnc4ccccc43)nnc2s1
  -0.29	-2.2
> Cc1cc2c(cc3c(=O)n(CCCC(=O)NCC4CCCO4)nc(C)n32)o1 (configuration not stated)
  1.2	0.79
> Cc1c(Cl)cccc1NC(=O)C1CC2CCCN2C12C(=O)Nc1ccccc12 (configuration not stated)
  -1.6	/
> O=c1oc(/C=C/c2ccccc2)nc2ccccc12
  2.8	-0.11
> Cc1ccc2oc(-c3ccc(N)cc3)nc2c1
  0.84	-1.6
> Cc1nc2cc(-c3ccc(Cl)cc3)nn2c(C)c1CCC(=O)NC(C)c1ccc2c(c1)OCCO2 (configuration not stated)
  /	-0.36
> COC(=O)c1ccc2c(=O)[nH]c3c(C(=O)NCc4ccc5c(c4)OCO5)sc(=S)n3c2c1
  0.32	/
> CC1(CO)CSC(Nc2cccnc2)=N1 (configuration not stated)
  /	-2.2
> CCCCCOC(=O)C1=C(C)NC2=C(C(=O)CCC2)C1c1ccc(O)c(OC)c1 (configuration not stated)
  2	-2.5
> COc1ccc(C(=O)CC2(O)C(=O)N(CCc3ccccc3)c3ccc(Br)cc32)cc1 (configuration not stated)
  0.96	-0.13
> O=C(CCc1nnc2ccc(N3CCCCC3)nn12)N1CCN(c2ccccn2)CC1
  -0.88	/
> CCOC(=O)Cn1nc(SC)n2c(=O)c3c(nc12)-c1ccccc1CC3(CC)CC
  -0.42	-1.5
> CCc1nn(C(C)C(=O)N2CCN(c3ccccc3)CC2)c(=O)c2cc3occc3n12 (configuration not stated)
  1.3	-0.66
> COc1cc(OC)c(Nc2nc3ccccc3n3cnnc23)cc1Cl
  /	0.48

# (cont.)
# Fields – HIV TAR-Tat	CDC25B CDK2 inh
> O=C(NC1CC1)c1ccc(Cn2c(SCc3ccccc3)nc3cccnc32)cc1
  1.5	/
> Cc1ccc(-c2nsc(NC(=O)c3cccs3)n2)s1
  -0.14	-0.42
> O=C(CCc1nnc2ccc(N3CCCC3)nn12)NCC1CCCO1 (configuration not stated)
  -1	/
> CCc1ccc(CN(C(=O)c2oc3cc(C)ccc3c2C)C2CCS(=O)(=O)C2)cc1 (configuration not stated)
  1.4	0.83
> Cc1cc(NC(=O)Nc2ccc3c(c2)OCCO3)c(C(F)(F)F)o1
  /	-1
> Cc1cccc(-c2nc3c4ccccc4nc(NCc4ccccn4)n3n2)c1
  0.83	-1.2
> CC1=C(c2ccccc2)S(=O)(=O)NC1=NC1CCCCC1C (configuration not stated)
  -1.2	-1.8
> O=C(Nc1ccc2c(c1)C(=O)c1ccccc1C2=O)c1ccccc1
  /	-0.85
> COC(=O)c1sc(N2C(=O)C(=O)/C(=C(/O)c3ccc(Cl)cc3)C2c2ccc(OC)cc2)nc1C (configuration not stated)
  -0.15	-3.2
> N#C/C(=C\c1sccc1Oc1ccccc1)C(=O)c1cccs1
  /	-2.1
> Cc1ccc2c(c1)S/C(=C\c1sc3ccccc3[n+]1C)N2CCO
  7.9*	2.4
> CCOc1ccc(N2CC(C)Cn3c2nc2c3c(=O)n(CC(=O)O)c(=O)n2C)cc1 (configuration not stated)
  2.1	-2.7
> CC1CCCCN1C(=O)CCS(=O)(=O)c1ccc2c(c1)oc(=O)n2C (configuration not stated)
  -0.04	/
> CC(=O)Nc1ncc2c(n1)CC(c1ccc(F)cc1)CC2=O (configuration not stated)
  /	0.1
> Cc1cc(=O)oc2c1c(C)nn2-c1cccc(Br)c1
  2.1	-2.1
> COc1ccccc1CNc1c(-c2ccc(OC(C)C)cc2)nc2ncccn12
  0.49	/
> COc1ccc(-c2nc3ccc(Br)cc3c(=O)o2)cc1OC
  /	-1.3
> Cn1cnc(S(=O)(=O)N2CCCC(c3nnc(C(=O)Nc4ccc(F)cc4)s3)C2)c1 (configuration not stated)
  1.2	/
> CS(=O)(=NS(=O)(=O)c1ccc(Cl)s1)c1ccccc1 (configuration not stated)
  /	-1.8
> CC(=O)Nc1c2n(c3ccc(F)cc13)CC(C)(C(=O)NC1CCCC1)N(CCC(C)C)C2=O (configuration not stated)
  1.1	/

# Exported as tab-separated lines: 4 of the compounds above.
Molecule	HIV TAR-Tat	CDC25B CDK2 inh
CS(=O)(=NS(=O)(=O)c1ccc(Cl)s1)c1ccccc1 (configuration not stated)	/	-1.8
CC(=O)Nc1c2n(c3ccc(F)cc13)CC(C)(C(=O)NC1CCCC1)N(CCC(C)C)C2=O (configuration not stated)	1.1	/
CCOc1ccc(N2CC(C)Cn3c2nc2c3c(=O)n(CC(=O)O)c(=O)n2C)cc1 (configuration not stated)	2.1	-2.7
CC(=O)Nc1ncc2c(n1)CC(c1ccc(F)cc1)CC2=O (configuration not stated)	/	0.1

# Arranged by SMILES length (low to high): 5 of the compounds above
# Fields – HIV TAR-Tat	CDC25B CDK2 inh
> O=c1oc(/C=C/c2ccccc2)nc2ccccc12
  2.8	-0.11
> O=C(CCC(=O)N1CCOc2ccccc21)N1CCCCC1
  -1.1	0.38
> CC1=C(c2ccccc2)S(=O)(=O)NC1=NC1CCCCC1C (configuration not stated)
  -1.2	-1.8
> CCOc1ccccc1OCc1nn2c(Cn3nnc4ccccc43)nnc2s1
  -0.29	-2.2
> COc1ccc(OC)c(NC(=O)c2noc3c2CSc2ccccc2-3)c1
  1.4	-0.72

# (cont.)
# Fields – HIV TAR-Tat	CDC25B CDK2 inh
> Cn1c(=O)oc2cc(S(=O)(=O)N3CCN(c4cccc(Cl)c4)CC3)ccc21
  /	-0.49
> Cc1ccc(-c2nc3scc(CCNS(=O)(=O)c4ccc(-c5ccccc5)cc4)n3n2)cc1
  2.9	/
> Cn1c(=O)c2c(nc(N(CCO)CCO)n2Cc2ccccc2)n(C)c1=O
  /	-0.94
> Cc1ccc(S(=O)(=O)N2CCC(c3nc4c(nnn4Cc4ccccc4F)c(=O)[nH]3)CC2)cc1
  0.67	-0.87
> COc1ccc(Nc2cc(C)nc3nc(-c4ccco4)nn23)c(OC)c1
  -0.14	/
> CCN1CCN(CCCNC(=O)c2oc3c(c2C)-c2[nH]ncc2CC3)CC1
  -1	-0.52
> CCCCOC(C)n1cc(Br)c(=O)[nH]c1=O (configuration not stated)
  2.1	-0.18
> CC(C)C(NS(=O)(=O)c1cccc2nsnc12)C(=O)O (configuration not stated)
  0.6	-1.2
> C=CCN1C(=O)C2(/C(=C(/O)c3ccc(Cl)cc3)C(=O)C(=O)N2CCOC)c2ccccc21 (configuration not stated)
  1.1	0.35
> COC(=O)c1ccc(C2Oc3ccc(Br)cc3C3CC(c4ccco4)=NN32)cc1 (configuration not stated)
  -5.5	-1.2
> Cc1ccc(-n2nnc(-c3nc(-c4ccc(Br)cc4)no3)c2N)cc1C
  -1.6	/
> N#Cc1nc(-c2ccc(COc3ccccc3)o2)oc1NCc1ccccc1
  -0.82	0.23
> O=C1c2cccnc2C(=O)N1c1ccc(Br)cc1OC(F)(F)F
  /	-1.5
> Cc1c(-c2ccnc(-c3ccccc3)n2)sc2nc(C(F)(F)F)nn12
  /	-1.8
> Nc1c(-c2ccccc2)cnc2c(-c3ccc(Cl)cc3)cnn12
  /	-1.5
> CCN(CC)C(=O)Cn1cc(C(=O)c2ccco2)c2ccccc21
  2.7	-1.1
> COc1ccc(OC)c(C(=O)CC2(O)C(=O)N(Cc3ccccc3)c3ccccc32)c1 (configuration not stated)
  0.01	0.71
> Cc1c(C(=O)Nc2ccc(S(N)(=O)=O)cc2)sc2nc3n(c(=O)c12)CCCCC3
  0.34	/
> O=C1c2ccccc2-c2onc3c(N4CCOCC4)cc(N4CCCCC4)c1c23
  -1.8	-1.1
> CC(C)c1ccc(C2/C(=C(\O)c3ccccc3)C(=O)C(=O)N2CCCN(C)C)cc1 (configuration not stated)
  0.37	-0.29

# Following part.
# Fields – HIV TAR-Tat	CDC25B CDK2 inh
> O=C(NCC(c1cccnc1)N1CCc2ccccc21)c1ccccc1Br (configuration not stated)
  0.55	-0.73
> COC(=O)c1ccc(NS(=O)(=O)c2cc(Br)cnc2N)cc1
  1.6	-1.3
> Cc1ccc(Nc2c(C)c(C)nc3ncnn23)cc1F
  0.18	/
> O=C(Nc1ccc(Cl)cc1)OCCSCCS(=O)(=O)c1ccc(Cl)cc1
  /	-0.27
> CCCC(O)c1nc2ccccc2n1CCCCOc1ccccc1 (configuration not stated)
  0.65	-0.38
> N#Cc1c(Cl)nsc1-c1ccccc1
  0.37	0.23
> CCC(CC)C(=O)NCC(c1ccco1)N1CCOCC1 (configuration not stated)
  0.97	0.49
> CCCCc1ncc(/C=C(\Cc2cccs2)C(=O)O)n1Cc1ccc(C(=O)O)cc1
  /	0.13
> CCOC(=O)c1c(C)oc2cc(Br)c(OCC(=O)C(C)(C)C)cc12
  /	-0.72
> O=C(CNC1CCCCC1)Nc1c2c(nc3c1CCC3)CCCC2
  /	-0.81
> Fc1ccccc1N1CCN(c2nc3ccccc3n3cnnc23)CC1
  1.8	-2
> CCCNC(=O)Cn1nc(C)c([N+](=O)[O-])c1C
  /	-0.33
> N#CC(Sc1ccccc1)c1ccccc1 (configuration not stated)
  /	-3.3
> CCS(=O)(=O)N1CCC2(CC1)OC(=O)C(C)=C2C(=O)Nc1cc(OC)cc(OC)c1
  1.3	/
> O=C(NCCc1cnc[nH]1)c1ccc(Cn2c(SCc3ccc(F)cc3)nc3cccnc32)cc1
  0.19	0.33
> COC(=O)C1=C(C)NC2=C(C(=O)CC(C)(C)C2)C1c1ccc(C(=O)OC)cc1 (configuration not stated)
  0.13	-0.62
> Cc1ccc(-n2c(=O)[nH]c(=O)c3sc(N)nc32)cc1C
  -2.1	-0.14
> Cc1c2occ(-c3ccc4c(c3)OCO4)c2cc2c1oc(=O)c1ccccc12
  2	-0.72
> N#CC1=C2SCN(Cc3ccco3)CN2C(=O)CC1c1cccc(OCc2ccccc2)c1 (configuration not stated)
  -1.2	3.4*
> CC1CCc2nn(CC(=O)NCc3cccs3)cc2C1 (configuration not stated)
  -0.47	-0.17

# (cont.)
# Fields – HIV TAR-Tat	CDC25B CDK2 inh
> CCC(CC)C(=O)Nc1nn2c(CC(C)C)nnc2s1
  1.3	-1.7
> CCOC(CC(C(=O)N(C)C)(c1ccccc1)c1ccccc1)OCC
  /	-1.4
> CN1[C@@H](CC(=O)c2ccccc2)CCC[C@H]1C[C@H](O)c1ccccc1
  2.6	-2
> Cc1nnc2c3ccccc3nc(N3CCN(Cc4ccccc4)CC3)n12
  0.67	/
> Cc1ccc(NC(=O)N2CCn3cccc3C2C(C)C)cc1 (configuration not stated)
  -0.08	/
> CCn1cc(S(=O)(=O)c2ccc(Cl)cc2)c(=O)c2cc(F)c(N3CCN(C)CC3)cc21
  1.1	/
> CC1(c2ccccc2)CC(C)(C)N2C(=O)C(=O)c3cccc1c32 (configuration not stated)
  4.1	0.15
> O=C(CSc1cn(CC(=O)N2CCCCC2)c2ccccc12)NCC1CCCO1 (configuration not stated)
  -0.38	/
> CCn1cc(S(=O)(=O)c2ccc(OC)cc2)c(=O)c2cc(F)c(N3CCN(C)CC3)cc21
  0.39	/
> CCCCNC(=O)C(C)n1nc(C)c2sc3ccccc3c2c1=O (configuration not stated)
  3	-2.1
> COC(=O)c1ccc(C2c3c(oc4ccc(C)cc4c3=O)C(=O)N2c2ccccn2)cc1 (configuration not stated)
  0.28	0.48
